HNF4A DNA FP: change in binding of human HNF4 alpha to DNA; actives 0.3% (n = 360,000); HNF4a-FITC DNA binding, fluorescence polarization, 1 h; AID 1224865; P41235; activity change, % at 10 µM; in the data active = activity change above about 30%, passing the limit was not always enough;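 note: controls were the assay level and a saturating level of protein; the project sought stronger binding though the title names inhibitors; some compounds called inactive have numbers as strong as hits; positive values seem to mean higher polarization but the record does not say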
FGF22 binding: FGF22 (human) thermal shift binding. Q9HCT0. recombinant FGF22 thermal shift, SYPRO orange fluorescence; percent of sucrose octasulfate shift, DMSO zero. calls only at 9.99 µM. actives 1.5% (n = 340,000);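 active = melting point raised past a set limit in the mean and every replicate; three in four hits are not shown here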
Target sequence (Q9HCT0 whole entry, looked up): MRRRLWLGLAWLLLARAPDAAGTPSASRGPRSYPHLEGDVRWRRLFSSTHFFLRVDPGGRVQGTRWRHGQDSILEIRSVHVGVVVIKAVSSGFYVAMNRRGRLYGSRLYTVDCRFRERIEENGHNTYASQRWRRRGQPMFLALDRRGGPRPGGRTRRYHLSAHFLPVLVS
Beta2AR agonist: human beta-2 adrenergic receptor agonism by FAP; P07550; Am2.2-beta2AR cells, FAP receptor internalization, flow cytometry; reference of the scale not given here; response, % (concentration not given with the values); actives 0.43% (n = 340,000);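 active = response above a set limit, near 3 SD of response in nonfluorescent compounds, cut at about 42% in these data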;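 note: stock transfer was 100 nL into about 11 µL; a reference agonist was the positive control; negative values mostly stem from fluorescent compounds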
Ecoli rRNA inh: selective bacterial rRNA inhibition in E. coli; GFP signal change (wild-type ribosome), % (concentration not given with the values); E. coli WT GFP vs humanized-ribosome RFP mutants, fluorescence, 24 h; hits give low values; DMSO median 0, no signal -100; actives 1.6% (n = 350,000);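 active = significant combined selectivity score with lowered wild-type GFP, culture density cut under 30%, mutant RFP and density less affected; inactive = any of these conditions unmet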; note: one replicate is shown; some compounds called inactive have numbers as strong as hits
ALR H2O2 inh: human ALR oxidase inhibition via reduced H2O2; purified ALR, DTT oxidation, H2O2 HRP-luminol luminescence; inhibition, % (test concentration not listed); actives 3.8% (n = 290,000); AID 485317;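 active = mean and each replicate at 75% or more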;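 note: stock transfer was 7.5 nL into about 7.5 µL; 0% = neutral wells and 100% = wells with inactivated enzyme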
Target sequence (P55789 whole entry, looked up): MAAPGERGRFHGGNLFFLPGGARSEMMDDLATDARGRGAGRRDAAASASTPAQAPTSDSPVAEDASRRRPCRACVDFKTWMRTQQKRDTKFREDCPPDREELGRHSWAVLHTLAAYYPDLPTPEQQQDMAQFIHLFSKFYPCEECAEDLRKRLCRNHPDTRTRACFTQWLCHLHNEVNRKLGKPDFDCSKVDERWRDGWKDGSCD
E coli growth: E. coli growth inhibition | AID 1053175 | OD600 absorbance (no concentration beside the values) | actives 0.21% (n = 330,000) | Escherichia coli growth, OD600, 23 h; hits give low values;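 active = OD600 absorbance below the run mean of sample wells minus 3.6 SD, in any replicate, cut at about 0.56 in these data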;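 note: stock transfer was 300 nL into about 60 µL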
UCH37 inh: inhibitors of human deubiquitinating enzyme UCH37. AID 588478. purified proteasome/UCH37, Ub-AMC cleavage fluorescence. inhibition, % (concentration not given with the values). actives 0.33% (n = 330,000);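 active = mean of two replicates above 20%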;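 note: 0% = compound-free wells with enzyme and 100% = wells lacking proteasome; stock transfer was 100 nL into about 20 µL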
Target sequence (Q9Y5K5 whole entry, looked up): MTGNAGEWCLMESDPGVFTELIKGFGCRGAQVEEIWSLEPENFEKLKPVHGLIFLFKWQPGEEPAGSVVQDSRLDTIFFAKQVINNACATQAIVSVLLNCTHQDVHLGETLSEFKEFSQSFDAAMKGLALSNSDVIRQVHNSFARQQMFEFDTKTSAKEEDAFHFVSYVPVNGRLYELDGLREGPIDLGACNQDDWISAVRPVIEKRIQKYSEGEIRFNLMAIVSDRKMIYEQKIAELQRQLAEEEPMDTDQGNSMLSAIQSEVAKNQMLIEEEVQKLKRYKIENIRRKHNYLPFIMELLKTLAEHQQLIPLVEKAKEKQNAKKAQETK
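Signal – fluorescence, ex 355 nm, em 460 nm · System – Proteasome-bound UCH37 · Input – 0.15 nM proteasome as dispensed · Timing – 30 min preincubation with enzyme, 25 min cleavage at room temperature · Read-out basis – percent inhibition of cleavage signal versus uninhibited and no-proteasome wells · Medium – Tris-HCl pH 7.4 with ATP-MgCl2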
Ecoli rRNA inh OD600: second read-out of Ecoli rRNA inh, no call of its own (marks repeat the call); OD600 change, %; measured here: OD600 growth;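 optical density of the mix in the first replicate; 0 = DMSO median and -100 = no signal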
Ecoli rRNA inh RFP: second read-out of Ecoli rRNA inh, no call of its own (marks repeat the call); RFP signal change, %; measured here: RFP humanized mutant strains;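 first replicate; 0 = DMSO median and -100 = no signal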
Numbers without * were called inactive; i = inactive; nt = not tested or not shown; + = active, no number.

SMILES	HNF4A DNA FP	FGF22 binding	Beta2AR agonist	Ecoli rRNA inh	Ecoli rRNA inh OD600	Ecoli rRNA inh RFP	ALR H2O2 inh	E coli growth	UCH37 inh
Cc1ccc(C(=O)Nc2ncc3c(n2)CC(c2ccco2)CC3=O)cc1 (stereo not drawn)	-0.3	nt	-7	nt	nt	nt	-9	0.72	0.2
COc1ccc(Cn2cc3c(-c4ccc(F)cc4)nnc-3c3cc(OC)c(OC)cc32)cc1	11	i	-28	74	8	9.6	8	0.75	-45
CCOc1c(Cl)cc(CNC(C)(C)CC(C)(C)C)cc1OC	-4.6	nt	7	nt	nt	nt	nt	0.68	5.0
COc1ccc(CN2CCN(C(=O)CCC(=O)c3ccc(C)s3)CC2)cc1OC	6.3	i	9	5	1	0.5	nt	0.65	-1.0
Cc1cc(C)cc(N2C(N)=NC(N)=NC2c2ccccc2F)c1 (stereo not drawn)	-2.1	i	3	-4	-6	-2.5	-1	0.67	4.5
CCN(Cc1ccccc1)S(=O)(=O)c1ccc(C(=O)Nc2nnc(-c3ccccc3OC)o2)cc1	-2.4	nt	5	-7	-10	-7.5	5	0.7	-19
Cc1cc(NS(=O)(=O)c2cc(Cl)sc2Cl)no1	-0.1	i	-2	10	12	-0.8	30	0.67	0.1
COc1ccc(Br)cc1CNC(=O)Cn1nc(C)n2cccc2c1=O	2.9	i	-9	-5	-8	-5.0	-6	0.69	2.8
Cn1cc(C(=O)N/N=C/c2cccs2)c2ccccc21	2.5	nt	-12	nt	nt	nt	-4	nt	nt
CC1=CC(C)C2(CO)COC(c3ccccc3O)C1C2C (stereo not drawn)	-1.7	nt	13	nt	nt	nt	nt	0.7	0.9
COc1ccccc1Cn1c(=S)[nH]c2cc(C(=O)NCC(OC)OC)ccc2c1=O	2.8	i	4	4	-5	1.3	-26	0.67	-1.8
CCn1nnc2cc(C(=O)N(CCOC)CC(=O)Nc3cccc(C)c3C)ccc21	5.5	i	-6	19	17	0.6	nt	0.68	4.6
CC1(c2ccccc2)NC(=O)N(CC(=O)Nc2ccc(Cl)c(S(=O)(=O)N3CCCCC3)c2)C1=O (stereo not drawn)	1.6	i	-2	-22	-32	-1.6	-5	0.7	6.6
Cc1ccc(/C=C/C(=O)OCC(=O)NCCN2C(=O)CSC2=O)cc1	-2.8	i	4	3	-1	-3.8	2	0.66	0.6
COc1ccc(CC2S/C(=N/N=C/c3ccc(O)cc3)NC2=O)cc1 (stereo not drawn)	0.5	i	-2	8	6	0.8	-8	nt	nt
Fc1ccc(N=c2ssnc2Cl)c(F)c1	-0.1	nt	3	-11	-13	-0.9	-5	0.6	1.8
O=C(Nc1c2c(nc3c1CCC3)CCCC2)c1ccccn1	1.1	nt	-17	nt	nt	nt	-2	0.69	1.3
O=C(CCc1nnc2n(Cc3ccc(F)cc3)c(=O)c3ccccc3n12)N1CCN(c2ccccn2)CC1	3.1	i	-4	4	10	-1.3	-2	0.71	4.4
O=C(CSCc1ccc(Cl)cc1)Nc1ccc(Br)cc1C(=O)O	-0.7	i	-1	-26	-59	-7.5	96*	0.61	3.6
COC(=O)C1=C(C)N(Cc2ccc(OC)cc2)C(=O)C1	1.1	i	0	5	3	2.4	37	0.71	1.1
CCCn1c(C)nc2c(c1=O)c1nc3ccccc3nc1n2-c1ccccc1	-2.3	i	15	12	9	0.3	nt	0.72	-26
O=C(Cc1ccccc1)Nc1nc(-c2cccc([N+](=O)[O-])c2)cs1	-0.3	i	1	nt	nt	nt	-4	0.65	-1.2
CCCC(=O)NC(C)c1nc2ccccc2n1C(C)C (stereo not drawn)	4.0	i	5	2	7	0.9	-18	0.76	1.5
O=C1CC[C@@]23CCCN2C(=O)CCCC3C1 (stereo partly drawn)	-3.2	i	-4	30	9	0.2	nt	0.67	-0.3
Cc1cccc(C(=O)N[C@H](C(=O)OCC(=O)NC(=O)c2cccn2C)C(C)C)c1	-0.7	i	4	-4	2	1.5	-10	0.69	1.8
CCc1nc2c(OCc3ccc4c(c3)OCO4)cccn2c1N(C=O)Cc1ccc(OC)cc1	0.6	i	nt	1	4	9.4	nt	nt	nt
Cc1ccc(/C=N/N=C2/NC(=O)C(CC(=O)Nc3ccccc3)S2)o1 (stereo not drawn)	-2.3	nt	2	-8	-4	-2.4	-14	nt	nt
Cc1nnsc1C(=O)N(Cc1ccccc1)C(C)C	-2.6	i	4	14	10	-2.2	-28	0.63	2.6
CCOP(=O)(OCC)C(Nc1ccc(OC)cc1)c1ccco1 (stereo not drawn)	-0.7	i	-6	14	7	1.4	95*	0.68	0.5
O=C(/C=C/c1cccs1)NNC(=O)c1cccc([N+](=O)[O-])c1	1.4	i	4	9	4	-0.8	-1	0.66	7.2
O=C1C=C(c2ccc(Cl)c(C(F)(F)F)c2)C[C@@H](c2ccc(F)cc2)C1	4.4	i	-2	-1	-19	2.3	-1	nt	1.6
Cc1cccc(NC(=O)c2sc(NC(=O)COc3ccccc3)c(C#N)c2C)c1C	2.5	i	-3	4	2	-1.2	-14	0.66	3.2
COc1ccc(C(=O)Nc2ccccc2C(=O)NCCCn2ccnc2)cc1	0.5	nt	1	nt	nt	nt	nt	0.72	0.3
Cc1ccc2[nH]c3c(c2c1)CCC3=O	0.0	nt	0	nt	nt	nt	-5	0.7	-203
Cc1ccccc1OCCCSc1nc2ccccc2[nH]1	-2.8	i	-12	-52	-77	-21	-2	0.63	2.7
COc1ccc(OC)c(CNC(=O)c2ccc(C)c(NC(=O)C3=C(C)OCCS3)c2)c1	-0.2	i	2	-5	-6	-7.1	-6	0.69	2.3
O=C(CC(C(=O)O)c1ccccc1)c1cccs1 (stereo not drawn)	-0.3	i	1	9	-10	-4.1	-4	0.67	4.0
COc1ccc(S(=O)(=O)N2CCC(C(=O)NCCN3CCOCC3)CC2)cc1OC	2.8	i	5	4	14	-0.6	-1	0.71	7.7
COc1ccc(C(=O)Nc2c(Cl)cc(Cl)cc2C(=O)NCc2ccco2)cc1	-0.3	nt	-6	nt	nt	nt	-12	0.75	2.3
CS(=O)(=O)Nc1cccc(-c2cnc3ccccc3n2)c1	5.3	i	0	-8	-6	0.4	4	0.68	8.8

Profiles, quoted from the list:
Cc1ccc2[nH]c3c(c2c1)CCC3=O reads HNF4A DNA FP = 0.0; FGF22 binding = nt; Beta2AR agonist = 0; Ecoli rRNA inh = nt; Ecoli rRNA inh OD600 = nt; Ecoli rRNA inh RFP = nt; ALR H2O2 inh = -5; E coli growth = 0.7; UCH37 inh = -203
O=C1CC[C@@]23CCCN2C(=O)CCCC3C1 (stereo partly drawn) reads HNF4A DNA FP = -3.2; FGF22 binding = i; Beta2AR agonist = -4; Ecoli rRNA inh = 30; Ecoli rRNA inh OD600 = 9; Ecoli rRNA inh RFP = 0.2; ALR H2O2 inh = nt; E coli growth = 0.67; UCH37 inh = -0.3

(more compounds)
SMILES	HNF4A DNA FP	FGF22 binding	Beta2AR agonist	Ecoli rRNA inh	Ecoli rRNA inh OD600	Ecoli rRNA inh RFP	ALR H2O2 inh	E coli growth	UCH37 inh
COc1ccc2cc(C(=O)N3CCN(C)CC3)[nH]c2c1	-1.2	i	-3	10	11	-0.3	-12	0.61	0.7
CCOc1ccc(NC(=O)CSc2nnc(COc3c(C)cccc3C)o2)cc1	1.3	i	-1	9	7	2.4	-5	0.74	2.3
Cc1c(O)ccc2c(CN3CCOCC3)cc(=O)oc12	-3.2	i	7	0	1	-0.6	88*	0.72	i
CCCc1nc2c(C)cc(Br)cn2c1Cc1ccsc1	-11	i	nt	-20	-25	5.3	nt	nt	nt
COc1ccc(CNC(=O)Cn2ncn3cccc3c2=O)cc1	nt	i	nt	14	14	3.7	1	0.72	1.1
COc1cc(C(=O)NCC(=O)N/N=C/c2ccc(-c3ccc([N+](=O)[O-])cc3)o2)cc(OC)c1OC	7.4	i	13	4	9	-1.6	nt	nt	nt
COc1ccc(CN2C(=O)CCC2(C)c2nnnn2Cc2ccccc2)cc1 (stereo not drawn)	0.7	i	nt	8	19	5.6	nt	nt	nt
CC(C)C[C@H](NC(=O)c1ccc(OC2CCN(C(=O)C3CC3)CC2)cc1)C(N)=O	0.5	nt	-5	4	9	-6.5	nt	0.7	1.9
CCN(CC)S(=O)(=O)c1ccc(C(=O)N(c2ccccc2)C2C=CS(=O)(=O)C2)cc1 (stereo not drawn)	-0.9	i	-4	-2	7	-1.5	-5	0.64	0.7
Cc1ccc(C(=O)NNC(=S)NC(=O)c2ccc(Cl)cc2Cl)cc1	0.9	i	2	-50	-61	-4.6	64	0.68	5.6
COc1ccc(CC(C#N)(CO)c2nc3ccccc3[nH]2)cc1 (stereo not drawn)	-0.1	nt	-2	nt	nt	nt	7	0.71	-29
O=C(NC1CCCC1)C(c1ccc(Cl)cc1)N1CCN(C2CCCCC2)CC1 (stereo not drawn)	5.3	i	0	8	2	-5.4	-9	0.72	3.4
Cn1nc(-c2ccccc2)cc1NC(=O)c1ccccc1	-1.0	i	5	1	1	1.2	3	0.69	-0.6
CCc1cc(=O)oc2cc(C)cc(OC(C)C(=O)O)c12 (stereo not drawn)	2.6	nt	-5	nt	nt	nt	-1	0.69	-339
Cc1cccc(Nc2nc(-c3ccccn3)cs2)n1	2.2	nt	-9	nt	nt	nt	89*	0.62	1.2
CC(=O)c1ccc2noc(-c3cccc(C)c3)c2c1	1.4	i	7	-3	-1	16	12	0.67	-33
CCCCN1C(=O)C(CC(=O)NCc2cccc3ccccc23)CC(C(=O)N(CC)CC)=C1C (stereo not drawn)	-2.0	i	nt	-3	-13	1.9	nt	nt	nt
CCCOc1ccccc1/C=C(\C#N)C(=O)Nc1cccc(C)n1	1.1	i	13	-24*	-13*	8.3*	-3	0.68	2.3
Cc1ccc(S(=O)(=O)NC(=O)Nc2c(C)n(C)n(-c3ccccc3)c2=O)cc1	-2.5	i	6	6	3	-3.5	6	0.71	6.8
CCOC(=O)c1ccc(NC(=O)N2CCN(c3cccc(OC)c3)CC2)cc1	-0.8	i	9	-5	0	-1.0	3	0.71	3.5

Continued, starting with the last 4 of the part before.
SMILES	HNF4A DNA FP	FGF22 binding	Beta2AR agonist	Ecoli rRNA inh	Ecoli rRNA inh OD600	Ecoli rRNA inh RFP	ALR H2O2 inh	E coli growth	UCH37 inh
CCCCN1C(=O)C(CC(=O)NCc2cccc3ccccc23)CC(C(=O)N(CC)CC)=C1C (stereo not drawn)	-2.0	i	nt	-3	-13	1.9	nt	nt	nt
CCCOc1ccccc1/C=C(\C#N)C(=O)Nc1cccc(C)n1	1.1	i	13	-24*	-13*	8.3*	-3	0.68	2.3
Cc1ccc(S(=O)(=O)NC(=O)Nc2c(C)n(C)n(-c3ccccc3)c2=O)cc1	-2.5	i	6	6	3	-3.5	6	0.71	6.8
CCOC(=O)c1ccc(NC(=O)N2CCN(c3cccc(OC)c3)CC2)cc1	-0.8	i	9	-5	0	-1.0	3	0.71	3.5
CSCC[C@H](NS(=O)(=O)c1ccc(C)cc1)C(=O)N1CCC(C(=O)N[C@@H](Cc2ccc(O)cc2)C(=O)O)CC1	1.9	i	4	nt	nt	nt	nt	0.81	1.2
CC/C(=N/Nc1ccccc1Cl)c1cnnc(-c2ccccc2)n1	0.4	nt	-5	nt	nt	nt	-8	nt	nt
CC(=O)c1ccc(S(=O)(=O)N2CCN(C(=O)c3ccc(-n4nc(C)c(Cl)c4C)cc3)CC2)cc1	1.8	i	3	2	-2	1.5	-4	0.67	2.0
CCOC(=O)C1CCN(C(=O)c2ccc3c(=O)n4nc(Nc5ccccc5OC)sc4nc3c2)CC1	0.8	+	nt	19	25	6.8	nt	nt	nt
Cc1cc(C)c2c(=O)[nH]n(C3CCOC(C)(C)C3)c2n1 (stereo not drawn)	2.3	i	3	8	9	-2.4	39	0.75	6.9
CCNC(=S)N1CCc2ccccc2C1	3.9	i	5	10	7	0.9	-4	0.72	3.9

A portion of the library, so the mix of outcomes need not match the whole.
